AmpC inh no det – Promiscuous and Specific Inhibitors of AmpC Beta-Lactamase (assay without detergent) | P00811 | AmpC nitrocefin hydrolysis, absorbance 480 nm, no detergent; potencies from a single point are estimates | Potency, µM (series often up to 28.7 µM), for inactives: at the top dose activity change, negative = inhibition | 71,000 tested, 1.8% active; active = falling curve, for most hits resting on a single point; inconclusive = weak or doubtful change; inactive = flat or rising curve; further: % of control where 0% means no effect; about half of the hits show no inhibition at the top dose; a quarter of the inactives give rising signals
Target sequence (P00811 whole entry, looked up): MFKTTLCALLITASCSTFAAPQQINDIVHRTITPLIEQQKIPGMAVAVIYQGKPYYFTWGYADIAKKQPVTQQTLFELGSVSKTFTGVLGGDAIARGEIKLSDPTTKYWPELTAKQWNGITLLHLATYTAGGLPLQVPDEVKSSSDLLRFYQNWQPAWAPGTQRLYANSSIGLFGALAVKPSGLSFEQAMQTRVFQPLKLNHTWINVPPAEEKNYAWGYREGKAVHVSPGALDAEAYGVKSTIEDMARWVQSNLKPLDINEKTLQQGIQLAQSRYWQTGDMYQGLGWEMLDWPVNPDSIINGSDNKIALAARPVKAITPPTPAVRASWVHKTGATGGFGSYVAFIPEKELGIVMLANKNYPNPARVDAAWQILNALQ
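AmpC in 20 mM phosphate buffer pH 7.0 was preincubated 15 min at room temperature with compounds. Nitrocefin (800 uM stock) was then added and hydrolysis followed at 480 nm every 20 s for 4 min.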
The depositor's hits bear a star; [ ] = dose if it differs, or a comment. Potency means the concentration at half of the fitted maximal effect. This is a subset. The share of hits here may be higher or lower than overall.

SMILES | AmpC inh no det
O=C(O)C1=CCCN(CCOC(c2ccc(C(F)(F)F)cc2)c2ccc(C(F)(F)F)cc2)C1 | 145%
Cc1ccc2cc(CN(CCN3CCCC3)C(=O)Nc3ccccc3)c(=O)[nH]c2c1C | 45%
CCc1nnc(NC(=O)c2nc3nccc(C)n3n2)s1 | 0%
COc1ccc(-c2nc3cnc(N(C)C)nc3n(CCC#N)c2=O)cc1 | 2%
CCOC(=O)N1CCC(Nc2ncnc3c2cnn3-c2ccccc2)CC1 | 67%
CCOC(=O)c1cnn(-c2sc(C(=O)OCC)c(C)c2C(=O)OCC)c1N | 33%
Nc1ccc(F)cc1F | -4%
O=C1Nc2ccccc2C(O)(C(=O)NC2CC2)N1c1ccc(Cl)c(Cl)c1 (stereo unspecified) | -3%
Clc1ccc(Cl)c(SCCCN2CCNCC2)c1 | -2%[5.75 µM]
CCn1cc(SCC(=O)NCc2ccc3c(c2)OCO3)c2ccccc21 | 2%
CCOC(=O)C1CCN(CC(=O)c2c(C)[nH]c3cc(C)ccc23)CC1 | 43%
CC(C)C(=O)Nc1nnc(Cc2ccccc2)s1 | -1%
COc1cc2c(cc1O)CCN[C@H]2C | -4%
CCOc1ccc(NC(=O)c2ccncc2)cc1 | -2%
Cc1[nH]c(=O)c(C#N)cc1-c1ccncc1 | 5%
CC(=O)n1cc(Nc2ccccc2C(=O)O)c2ccccc21 | -7%
COC(=O)c1cnc2c(C(F)(F)F)cccc2c1OC | 13%
Cc1ccc(CNC(=O)CN(C)S(=O)(=O)c2cccc3nsnc23)cc1 | 25%
O=C(NC1CCCCC1)N(Cc1nc2ccccc2c(=O)[nH]1)C1CCCC1 | 12%
CC(C)(C)NC(=O)CSc1nc(O)cc(=O)n1-c1ccccc1F | -6%
CS(=O)(=O)N(CC(=O)N1CCCCCC1)c1ccc(Br)cc1 | 19%
Cc1nn(C)c(C)c1CNC(=O)c1cnn2c1NC(c1ccccc1)CC2C(F)(F)F (stereo unspecified) | 126%
Clc1ccc(CSCc2ccc(Cl)cc2Cl)c(Cl)c1 | -1%[5.75 µM]
CCOC(=O)N1CCN(C(=O)c2cnc(Nc3ccccc3OC)c3ccccc23)CC1 | 105%
O=C(OCC(=O)N1CCc2ccccc21)c1ccc[n+]([O-])c1 | -10%
New compounds follow:
SMILES | AmpC inh no det
CCCn1c(C)nc2c(N3CCN(C)CC3)nc(C)nc21 | 7%
Cc1cc(C)n(CNc2nc(C(F)(F)F)cs2)n1 | 13%
N#Cc1ccccc1-c1ccc2ncnc(NC3CC3)c2c1 | 13%
COc1ccc(NC(=O)Nc2cccc3cccnc23)cc1 | -16%
CC(C)(C)NC(=O)C(c1ccncc1)N(Cc1cccs1)C(=O)Cn1nnc(-c2cccs2)n1 (stereo unspecified) | 98%
CCN(CC)CCCCCOc1ccccc1OC | 11%
COc1ccc(C2C=C(c3ccccc3)Nc3nnnn32)cc1 (stereo unspecified) | 2%
O=C(NCc1ccc2c(c1)OCO2)c1nnc(Cc2ccc(F)cc2)o1 | -7%
COC(=O)Cc1c(C)nc2nc[nH]n2c1=O | 1%
CCOc1ccc(N2CC(C(=O)OC)CC2=O)cc1 (stereo unspecified) | 3%
Cc1c(NC(=O)C(C)OC(=O)C(NC(=O)c2ccco2)C(C)C)c(=O)n(-c2ccccc2)n1C (stereo unspecified) | 13%
CCN(CC)C(=O)CSc1nc2ncc(Br)cc2[nH]1 | -10%
CCOc1ccc(C(=O)OCc2nnc(-c3cccs3)o2)cc1OC | 79%
Cc1cc(NC(=O)Nc2cccs2)no1 | -7%
O=c1c(CCc2ccccc2)nc2cnc(Oc3ccccc3)nc2n1C1CC1 | 8%
COc1ccc(C(=O)CSc2nnc(-c3cccnc3)n2Cc2ccco2)cc1 | 8%
Cc1ccc(S(=O)(=O)NC2CCOC(C)(C)C2)cc1 (stereo unspecified) | 12%
COc1cccc(CNn2cnnc2)c1OCc1ccccc1F | 12%
Cc1ccc(N(CC(=O)NCc2ccco2)S(=O)(=O)c2ccccc2)cc1 | 0%
Cc1ccc(S(=O)(=O)Nc2ccccc2CNc2c(C)n(C)n(-c3ccccc3)c2=O)cc1 | 31%
COc1ccc2cc3cc(C(=O)NCCc4ccc(OC)c(OC)c4)oc3nc2c1 | 65%
CCOC(=O)Cc1csc(NC(NC(=O)CC)(C(F)(F)F)C(F)(F)F)n1 | -4%
COC1CCCCC1Nc1cccc(SC)c1 (stereo unspecified) | -1%
COc1c(N2CCNC(C)C2)c(F)cc2c(=O)c(C(=O)O)cn(C3CC3)c12 (stereo unspecified) | -11%
O=C(Nc1ccc(-c2nc3ncccc3o2)cc1)c1ccco1 | 19%
The list continues:
SMILES | AmpC inh no det
Cn1c2c(c(=O)n(C)c1=O)C(c1cccc(Br)c1)C1C(=O)c3ccccc3C1=N2 (stereo unspecified) | 1%
O=S(=O)(Cc1ccccc1Cl)N1CCN(Cc2ccc3c(c2)OCO3)CC1 | 24%
CCOC(=O)c1nc(S(C)(=O)=O)ncc1Cl | 3%
O=C(c1cccs1)N1CCC(c2nc3c(nnn3Cc3ccccc3)c(=O)[nH]2)CC1 | 21%
CCOC(=O)NC1(C(F)(F)F)C(=O)N(Cc2ccccn2)C2=C1C(=O)CC(C)(C)C2 (stereo unspecified) | 16%
O=C(Nc1ccccc1)NC1CC2CCC(C1)N2 (stereo unspecified) | -12%
COc1cc(NC(=O)C(C)Oc2ccccc2)cc(OC)c1 (stereo unspecified) | -4%
CC(C(=O)NC1CCCCCC1)N(c1ccccc1)S(C)(=O)=O (stereo unspecified) | 7%
COc1ccc(NC(=O)c2ccco2)cc1NC(=O)c1ccco1 | -8%
COc1ccc(-n2c3c(cc(C(=O)N4CCN(CCO)CC4)c2=O)C(=O)CC(C)(C)C3)cc1 | 11%
COc1ccc(CC(=O)OCC(=O)NC(=O)NC2CCCCC2)cc1 | -3%
COc1ccc(OC)c(C(=O)COC(=O)CNC(=O)C2CCCCC2)c1 | -2%
COC(=O)c1ccccc1NC(=O)C1CCN(S(=O)(=O)c2cc(C)ccc2OC)CC1 | 71%
CCCn1c(SCc2nc(-c3cccs3)no2)nnc1-c1ccncc1 | 36%
CC(=O)Nc1nc(=O)c2ccccc2s1 | -8%
Cn1c(=O)[nH]c(=O)c2c1nc(CN1CCOCC1)n2CCCc1ccccc1 | 37%
COCCn1c(SCC(=O)Nc2nnc(C)s2)nnc1-c1cc2ccccc2cc1O | 8%
O=C(O)CCC(=O)Nc1ccc(N2CCCCCC2)cc1 | 12%
CC(C)Cn1c(-c2ccc(Cl)cc2)cnc1SCC(=O)N1CCOCC1 | 133%
Nc1nc(C2CC2)c(Sc2sc(N)nc2C2CC2)s1 | -14%
Cc1ccc(OCC(=O)Nc2ccc(O)c(-c3nc4ccccc4o3)c2)cc1 | -12%
Cc1ccc(S(=O)(=O)n2ccnc2)cc1C | 3%
Cc1cc(C)n(-c2nc3ccccc3n3cnnc23)n1 | 0%
COc1ccc(C2CC(C(F)(F)F)n3ncc(C(=O)O)c3N2)cc1OC (stereo unspecified) | 11%
COc1ccc(Cn2nnnc2C(c2ccccn2)N2CCN(c3cc(Cl)ccc3C)CC2)cc1 (stereo unspecified) | 45%
(cont.)
SMILES | AmpC inh no det
N#Cc1nc(-c2ccc(OCc3ccccc3)cc2)oc1NCCN1CCOCC1 | 168%
CCOC(=O)Cc1cnc(NC(=O)Cn2nnc(-c3ccc(OCC)cc3)n2)s1 | -4%
CN(C(=O)c1ccco1)C1(c2ccccc2Cl)CCCCC1=O (stereo unspecified) | 13%
O=S(=O)(c1ccc(S(=O)(=O)N2CCCC2)cc1)N1CCCCCC1 | -7%
Cc1nc(CNS(=O)(=O)c2ccccc2F)cs1 | 4%
O=C1CCc2cc(S(=O)(=O)NC(C(=O)NCc3cccnc3)c3ccccc3)ccc2N1 (stereo unspecified) | 4µM*[single pt active]
O=S(=O)(c1ccc(Br)s1)N1CCCCC1 | -5%
CCn1cc(C(=O)N2CCCCC2)c(=O)c2cc(S(=O)(=O)N3CCC(C)CC3)ccc21 | 101%
O=C(NCc1ccco1)c1cccc(S(=O)(=O)N2CCOCC2)c1 | 2%
COC(=O)c1ccc(Cn2nc(C)c(Br)c2C)cc1 | 44%
O=C(Cc1ccccc1)N1CCCC(c2nc(-c3cccs3)no2)C1 (stereo unspecified) | 37%
Cc1nn(C)c(C)c1N=Cc1c(O)ccc2ccccc12 | 63%
C=C(Cl)COC(=O)[C@H]1C2C=CC(C2)C1C(=O)O (stereo partly specified) | -7%
CCn1c2ccccc2c2nnc(SCC(=O)NC(CC(C)C)C(=O)OC)nc21 (stereo unspecified) | 38%
COc1cc2c(cc1O)[C@@H](c1cc(O)c(O)c(OC)c1)[C@@](O)(C(=O)O)[C@@H](CO)[C@@H]2O | -6%[5.75 µM]
O=C1c2ccccc2NC(c2cccc(F)c2)N1Cc1ccco1 (stereo unspecified) | -20%
CCc1nn(CC(=O)NCCCN(CC)Cc2ccccc2)c(=O)c2cc3sccc3n12 | 43%
CCOC(=O)C(NC(=O)Nc1ccc(F)cc1)(OCC)C(F)(F)F (stereo unspecified) | 0%
COC(=O)Nc1ncc(CN2CCc3ccccc3C2)s1 | 7%
O=C(COc1ncnc2sccc12)N1CCc2ccccc2C1 | -8%
CCCOC(=O)C1C2C=CC3(CN(c4cccc(Cl)c4)C(=O)C13)O2 (stereo unspecified) | 11%
CCOC(=O)c1c(N)nn(C(=O)CC)c1-c1ccccc1 | 7%
COc1ccc(Cn2nnnc2C(c2ccccc2OC)N2CCC(C(N)=O)CC2)cc1 (stereo unspecified) | 77%
COC(=O)C(CC(=O)Nc1cc(C)ccc1C)Nc1ccccc1OC (stereo unspecified) | 20%
O=c1nc2n(c3c1oc1ccccc13)Cc1ccccc1-2 | -9%

Single entries from the list.
AmpC inh no det result of `CCc1nn(CC(=O)NCCCN(CC)Cc2ccccc2)c(=O)c2cc3sccc3n12` → 43%
AmpC inh no det result of `Cc1nc(CNS(=O)(=O)c2ccccc2F)cs1` → 4%

(list continues)
SMILES | AmpC inh no det
O=C(Cc1ccc(-n2cccc2)cc1)NC1CCCCC1 | -4%
Cc1nc(N2CCOCC2)c2nc(-c3ccccc3)n(CCN3CCCC3)c2n1 | 8%
CCC(c1nnnn1Cc1ccco1)N1CCC(C(N)=O)CC1 (stereo unspecified) | -8%
CC(C)CN1CCCC2(CCN(C(=O)c3cnccn3)CC2)C1 | 61%
C/C(O)=C(/C#N)c1nc2ccccc2[nH]1 | -8%
CC(OC(=O)CCCN1C(=O)c2ccccc2C1=O)C(=O)Nc1ncc(Cl)cc1Cl (stereo unspecified) | -2%
CCOC(=O)c1sc(NC(=O)CSc2nnnn2-c2ccc(C)cc2C)nc1C | 16%
CC1(NC(=O)C23CC4CC(CC(C4)C2)C3)CCS(=O)(=O)C1 (stereo unspecified) | 2%
CCCn1c(C)nc2c(NCCCN(CC)CC)nc(C)nc21 | -2%
Cc1ccc(NC(=O)NC(=O)CN2C(=O)NC3(CCc4ccccc43)C2=O)c(C)c1 (stereo unspecified) | 44%
Cn1c(C2=C(O)CN(c3ccc4c(c3)OCCO4)C2=N)nc2ccccc21 | 9%
Cc1c(-c2ccccc2)c(P(=O)(N2CCOCC2)N2CCOCC2)c2ccccn12 | 90%
CCOc1ccccc1N | -9%
c1ccc(-n2ncc(-c3nn[nH]n3)n2)cc1 | -8%
Cc1ccc(-n2c(Cc3cccn3C)nnc2SCC(=O)N2CCN(c3ccccc3)CC2)cc1 | 127%
O=C1CCC(C(=O)O)(c2ccccc2)C1 (stereo unspecified) | -6%
CC(=O)NCCNc1cc(-c2ccccc2CN(C)C)ncn1 | -10%
O=c1/c(=C\c2cccnc2)sc2nc3ccccc3n12 | 3%
Cc1cc(OCCCn2ccnc2)cc(C)c1Cl | 51%
Cn1ccnc1SCC(=O)Nc1ccc2ccccc2c1 | -10%
COc1ccccc1N(C(=O)CNS(=O)(=O)c1ccccc1)C(C(=O)NCc1ccco1)C(C)C (stereo unspecified) | 17%
CC1=C(C(N)=O)C(c2cccnc2)n2nc(SCc3ccccc3Cl)nc2N1 (stereo unspecified) | -13%
CCOC(=O)N1CCN(C(=O)CN(c2cccc(C(F)(F)F)c2)S(C)(=O)=O)CC1 | 48%
O=C(NCCCn1ccnc1)Nc1ccc(Cl)cc1 | -1%
COc1ccc(CCN2C(=O)CC(N3CCOCC3)C2=O)cc1 (stereo unspecified) | -3%
Cc1nn(C)c(C)c1NC(=O)CN1CCC(O)(c2ccc3c(c2)OCO3)CC1 | 4%

Among those listed so far, these contain fluorine:
SMILES | AmpC inh no det
O=C(O)C1=CCCN(CCOC(c2ccc(C(F)(F)F)cc2)c2ccc(C(F)(F)F)cc2)C1 | 145%
Nc1ccc(F)cc1F | -4%
COC(=O)c1cnc2c(C(F)(F)F)cccc2c1OC | 13%
CC(C)(C)NC(=O)CSc1nc(O)cc(=O)n1-c1ccccc1F | -6%
Cc1nn(C)c(C)c1CNC(=O)c1cnn2c1NC(c1ccccc1)CC2C(F)(F)F (stereo unspecified) | 126%
Cc1cc(C)n(CNc2nc(C(F)(F)F)cs2)n1 | 13%
O=C(NCc1ccc2c(c1)OCO2)c1nnc(Cc2ccc(F)cc2)o1 | -7%
COc1cccc(CNn2cnnc2)c1OCc1ccccc1F | 12%
CCOC(=O)Cc1csc(NC(NC(=O)CC)(C(F)(F)F)C(F)(F)F)n1 | -4%
COc1c(N2CCNC(C)C2)c(F)cc2c(=O)c(C(=O)O)cn(C3CC3)c12 (stereo unspecified) | -11%
CCOC(=O)NC1(C(F)(F)F)C(=O)N(Cc2ccccn2)C2=C1C(=O)CC(C)(C)C2 (stereo unspecified) | 16%
COc1ccc(C2CC(C(F)(F)F)n3ncc(C(=O)O)c3N2)cc1OC (stereo unspecified) | 11%
Cc1nc(CNS(=O)(=O)c2ccccc2F)cs1 | 4%
O=C1c2ccccc2NC(c2cccc(F)c2)N1Cc1ccco1 (stereo unspecified) | -20%
CCOC(=O)C(NC(=O)Nc1ccc(F)cc1)(OCC)C(F)(F)F (stereo unspecified) | 0%
CCOC(=O)N1CCN(C(=O)CN(c2cccc(C(F)(F)F)c2)S(C)(=O)=O)CC1 | 48%

Screens from PubChem.
